# Screening results as filed in PubChem.
# VDR inh: Inhibitors of the vitamin D receptor (VDR): qHTS; Vitamin D3 receptor (Homo sapiens), P11473; VDR-SRC2-3 peptide fluorescence polarization, 2 h; Potency, µM, for inactives: max response, negative = inhibition, hits mostly inhibitors; actives 0.93% (n = 400,000); AID 504847, 2011; active = well fitted inhibition curve with a large enough effect; inconclusive = small, poorly fitted or top-dose-only effect, or another doubt; inactive = no such curve, though single readings can be large or run the other way; also: series mostly up to about 120 µM
# Target sequence (P11473 whole entry, looked up): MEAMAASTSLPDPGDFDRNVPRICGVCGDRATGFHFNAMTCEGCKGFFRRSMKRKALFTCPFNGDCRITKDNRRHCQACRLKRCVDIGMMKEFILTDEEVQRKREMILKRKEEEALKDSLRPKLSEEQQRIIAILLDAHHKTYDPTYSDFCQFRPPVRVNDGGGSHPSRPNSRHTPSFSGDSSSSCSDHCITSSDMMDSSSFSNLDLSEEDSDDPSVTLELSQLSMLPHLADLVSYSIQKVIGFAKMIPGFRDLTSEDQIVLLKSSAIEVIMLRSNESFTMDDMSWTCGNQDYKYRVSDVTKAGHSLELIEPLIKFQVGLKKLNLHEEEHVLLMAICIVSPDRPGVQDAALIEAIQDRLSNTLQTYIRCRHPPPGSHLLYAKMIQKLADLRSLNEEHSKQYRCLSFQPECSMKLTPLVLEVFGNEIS
#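 Fluorescence polarization assay measuring small-molecule disruption of VDR binding to the coregulator peptide SRC2-3. Compounds were pin-transferred (23 nl) into the reagent mix and incubated 2 h at room temperature before reading.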
# An asterisk follows results filed as active; ? = inconclusive. % is scaled to controls: 0 for no effect and ±100 for the full control effect; potency is read from the fitted curve at half-maximal effect.
SMILES,VDR inh
CC(=O)Nc1ccc(NC(=O)c2ccc(COc3ccccc3)cc2)cc1,-24.5%
Cn1c(=O)n(C)c2cc([N+](=O)[O-])c(N3CCN(C(=O)c4cccc(Cl)c4)CC3)cc21,-0.2%
CC(C)C(=O)Nc1cccc(COc2cccc(CN(Cc3ccccc3)C(=O)OC(C)(C)C)c2)c1,0.7%
O=C(CNC(=O)c1ccco1)NNC(=O)c1cccc(Cl)c1,3.0%
O=C(Nc1ccc(F)c(Cl)c1)N1CCCCCC1,-5.7%
CCC(Sc1nc2cc3c(cc2c(=O)n1Cc1ccco1)OCO3)C(=O)Nc1cccc(OC)c1 (centres undefined),-4.0%
Cn1nc(-c2ccccc2)cc1NC(=O)c1ccccc1,0.5%
Cc1ccc(N2C(=O)C(O)(C(F)(F)F)C3=C2CC(C)(C)CC3=O)cc1 (centres undefined),5.5%
CC(=O)Nc1ccc(C(=O)Nc2ccncc2)cc1,-11.7%
O=C1c2cccc3c(O)ccc(c23)C(=O)N1Cc1ccccc1,8.9%
CCOC(=O)[C@H]1[C@H]2COc3cc(OC)ccc3[C@@H]2N2C(=O)CN(C)C(=O)[C@@]12C,-5.6%
Cc1cccc(C(=O)Nc2nc(-c3nnn(-c4cc(F)ccc4F)c3C)ns2)c1,10.0%
C/C(=N\Nc1nc(N)cc(Cl)n1)c1cccc([N+](=O)[O-])c1,10.4%
CCOC(=O)C1(Cc2ccc(Cl)cc2)CCN(C(=O)C2CCCO2)CC1 (centres undefined),-2.1%
CCN1CCN(S(=O)(=O)c2ccc(Cl)c(C(=O)Nc3ccccc3N3CCCC3)c2)CC1,-8.0%
COC(=O)Cc1ccc(NC(=S)N2CCN(CCO)CC2)cc1,-0.5%
CC(Sc1ncn[nH]1)C(=O)NCc1ccccc1 (centres undefined),9.1%
CC(C)c1onc(C(=O)Nc2cccnc2Cl)c1[N+](=O)[O-],-1.2%
CN(C(=O)C1CCCCC1)C1(C)CCS(=O)(=O)C1 (centres undefined),-9.5%
CCN(CC(=O)Nc1ccc(NC(C)=O)cc1)CC(=O)Nc1cccc(Cl)c1,0.2%
O=C(c1ccccc1)N1CCN(C2c3cccc4cccc(c34)C2NS(=O)(=O)c2ccccc2)CC1 (centres undefined),-7.1%
CCOc1ccc(CN2CCN(Cc3ccc4c(c3)c3ccccc3n4CC)CC2)cc1,-2.4%
COc1ccc(C(=O)N(Cc2cc(OC)c(OC)c(OC)c2)C2CCS(=O)(=O)C2)cc1Cl (centres undefined),7.8%
Cc1nn(CCC#N)c(C)c1Oc1ccccc1O,-12.7%
COc1ccccc1CNC(=O)CSc1nnc2c(Cl)cc(C(F)(F)F)cn12,-10.8%
# The results go on:
SMILES,VDR inh
Cc1ccc(C)c(OCC(=O)Nc2cc(C)on2)c1,3.0%
CCc1ccc(OCc2nnc(SCC(=O)NCC3CCCO3)n2C)cc1 (centres undefined),-5.9%
COc1ccccc1OCC(=O)Nc1ccc(S(=O)(=O)NC(C)=O)cc1,-5.3%
O=C(CN1CCN(Cc2ccc(F)cc2)CC1)Nc1nc2ccccc2s1,-5.8%
CCOC(=O)NC1(C(F)(F)F)C(=O)NC(C)=C1C(=O)OC (centres undefined),-11.7%
CCOC(=O)C1CCCN(C(=O)c2ccc(CS(=O)(=O)Cc3ccccc3C)o2)C1 (centres undefined),-10.8%
OCC1(Cc2ccc(Cl)cc2)CCN(CCCc2ccccc2)CC1,12.3%
FC(F)(F)c1cnc(N2CCSCC2)c(Cl)c1,2.8%
Cc1cc(C)cc(C(=O)NC(CC(N)=O)c2ccc(NC3CCCCCC3)c([N+](=O)[O-])c2)c1 (centres undefined),-2.1%
CCOC(=O)c1c(C)[nH]c(C)c1C(=O)COC(=O)/C=C/c1cccc(F)c1,-13.9%
O=C(O)[C@H]1Cc2ccccc2CN1S(=O)(=O)c1ccc(F)cc1,-4.2%
CCOC(=O)C1CCN(C(=O)CN(Cc2ccc(Cl)cc2)S(C)(=O)=O)CC1,22.8%
O=C(Cn1ncc2c3ccccc3n(Cc3ccc(F)cc3)c2c1=O)N1CCN(c2ncccn2)CC1,5.1%
COc1ccccc1-n1c(SCC(=O)c2ccc(O)cc2O)nc2cc([N+](=O)[O-])ccc21,-3.7%
COc1c2ccccc2c(OC)c2ccccc12,-5.0%
COc1ccc2c(c1)CC=C1C2CCC2(C)C(=O)C(=NO)CC12 (centres undefined),-14.2%
O=C(COC(=O)/C=C/c1ccccc1)NC1CC1,-10.2%
CC1CCC2(CC1)NC(=O)N(NC(=O)c1cccc(N(C)C)c1)C2=O (centres undefined),-2.2%
O=C(O)C(Cc1ccccc1)NC(=O)C(Cc1ccccc1)NC(=O)C12CC3CC(CC(C3)C1)C2 (centres undefined),1.4%
C/C(=C\c1cccs1)C(=O)c1c(C)cc(C)[nH]c1=O,-4.1%
C[C@H](NC(=O)C1CCC(CNC(=O)[C@@H]2CCCN2C(=O)OC(C)(C)C)CC1)C(=O)O (some centres undefined),-0.7%
CC(C)COC(=O)Nc1ccccc1C(=O)N1CCOCC1,5.2%
COc1cc(NCCCn2cnc(C(=O)Nc3ccc(C)c(C)c3)n2)cc(OC)c1OC,0.7%
Oc1ccc(F)c2cccnc12,39.8µM*
CCCCn1nnc(NC(=O)COc2cc(C)ccc2C(C)C)n1,-9.3%

# 3 structures out of the list, arranged by count of non-hydrogen atoms, descending:
SMILES,VDR inh
COc1ccccc1OCC(=O)Nc1ccc(S(=O)(=O)NC(C)=O)cc1,-5.3%
OCC1(Cc2ccc(Cl)cc2)CCN(CCCc2ccccc2)CC1,12.3%
COc1ccc2c(c1)CC=C1C2CCC2(C)C(=O)C(=NO)CC12 (centres undefined),-14.2%

# The main list resumes, starting seven compounds before the break.
SMILES,VDR inh
O=C(O)C(Cc1ccccc1)NC(=O)C(Cc1ccccc1)NC(=O)C12CC3CC(CC(C3)C1)C2 (centres undefined),1.4%
C/C(=C\c1cccs1)C(=O)c1c(C)cc(C)[nH]c1=O,-4.1%
C[C@H](NC(=O)C1CCC(CNC(=O)[C@@H]2CCCN2C(=O)OC(C)(C)C)CC1)C(=O)O (some centres undefined),-0.7%
CC(C)COC(=O)Nc1ccccc1C(=O)N1CCOCC1,5.2%
COc1cc(NCCCn2cnc(C(=O)Nc3ccc(C)c(C)c3)n2)cc(OC)c1OC,0.7%
Oc1ccc(F)c2cccnc12,39.8µM*
CCCCn1nnc(NC(=O)COc2cc(C)ccc2C(C)C)n1,-9.3%
Cc1onc(-c2ccccc2Cl)c1C(=O)NC(C)c1ccccc1 (centres undefined),-14.5%
Cc1ccc(C(=O)NNC2=Nc3cc([N+](=O)[O-])ccc3OC2)cc1,-3.3%
Cc1[nH]c2ccccc2c1/C=N\NC(=O)Cn1nnc(-c2ccccc2)n1,14.8%
Cc1ccccc1-c1nc(CS(=O)(=O)CC(=O)NC2CC2)c(C)o1,-1.9%
COc1ccc(CCN2CC(C(=O)NCCc3ccccc3C)CCC2=O)cc1 (centres undefined),-2.8%
O=C(/C=C/c1ccco1)NCC(=O)N/N=C/c1ccc([N+](=O)[O-])cc1,?
CCOC(=O)[C@H]1[C@H]2COc3ccc(C)cc3[C@@H]2N2C(=O)CN(Cc3ccco3)C(=O)[C@@]12C,?
Cc1cc(C)nc(Nc2cccc(C(F)(F)F)c2)n1,0.2%
Cc1ccc(/C=C2\SC(=S)N(CCC(=O)N3CCCCC3)C2=O)cc1,-3.4%
Nc1ccc(Br)c[n+]1Cc1cccc2cccnc12,2.2%
Cc1ccc(/C=C(\NC(=O)c2ccccc2)C(=O)NC2CCN(Cc3ccccc3)CC2)o1,-4.9%
C=CCn1c(SCCC)nc2ccccc2c1=O,-11.9%
Cc1nc2ccccc2nc1OCc1cccc(Cl)c1,1.5%
CN(C)c1ccc(-c2cc(O)c3ncccc3c2)cc1,-2.9%
O=C(O)c1ccc(-c2nc(-c3ccccc3)cs2)cc1,5.9%
COc1nc(N(C)S(=O)(=O)c2ccc(C)cc2)nc(C)c1Br,-4.9%
Nn1c(-c2ccccc2)nc2cc(Cl)ccc2c1=O,-5.8%
O=C(c1ccc(Cl)c(Cl)c1)N1CCCC1,3.6%
COc1ccc(C(=O)NCC(=O)NCC(=O)OCC(=O)c2cccs2)cc1,-17.1%
O=C(c1ccccc1)c1ccc(OC(=O)C2CCCCC2)cc1,3.1%
CC(C)CN1CCC(=O)N(C(CSc2ccc(Br)cc2)Cc2ccccc2)CC1 (centres undefined),-5.8%
CCOC(=O)C1CCCN(C(=O)COC(=O)c2cccs2)C1 (centres undefined),-7.3%
CCOCCCNC(=S)Nc1ccc2nc(N3CCOCC3)cc(C)c2c1,2.0%
CCOc1ccc(/C=C/C(=O)c2c(O)cc(C)oc2=O)cc1,?
C=CCc1ccccc1OC[C@H](O)CNC(C)C,1.1%
# Remaining list, next part
SMILES,VDR inh
O=C(c1ccccc1)n1nc(-c2ccccc2)nc1NCc1ccc(F)cc1,-3.6%
CCOc1ccc(NC(=O)Cn2c(=O)n(CC3CCC(C(=O)NCCc4ccccc4)CC3)c(=O)c3ccccc32)cc1 (centres undefined),-2.2%
O=C(CC1C[C@H](C(=O)N2CCCCC2)[C@@]2(CCc3ccccc3)c3[nH]c4ccccc4c3CCN2C1=O)NCCc1ccccn1 (some centres undefined),-8.4%
COc1ccc(CCNC(=O)C2CCN(c3ccc(N4CCOCC4)nn3)CC2)c(OC)c1,7.8%
CCn1c(SCC(=O)NNC(=O)c2ccc(OC)cc2)nnc1C(C)C,-9.3%
CCOc1cc(S(=O)(=O)Nc2ccccn2)ccc1F,14.2%
CCc1cc(=O)oc2cc(C)cc(OCC(=O)NCC3CCC(C(=O)O)CC3)c12 (centres undefined),-12.7%
COc1cc2nc(NCCC(C)C)n3nc(-c4ccccc4)nc3c2cc1OC,-12.9%
CNc1nc(Cl)c(SC)c(N2CCOCC2)n1,5.6%
Cc1ccc(-c2ccc(CCC(=O)O)n2-c2ccc(C(=O)O)cc2)cc1,?
CCN1/C(=C2\OC(=S)N(C)C2=O)C=Cc2ccccc21,-8.0%
Cc1ccc(CNC(=O)c2oc3ccc(S(=O)(=O)N4CCC(C)CC4)cc3c2C)cc1,12.7%
OC1CCN(c2c3c(nc4cc(-c5ccc(F)cc5)nn24)CCC3)CC1,-1.2%
O=c1nc(NC2CCCC2)ccn1Cc1cccc(Br)c1,-15.4%
Cc1ccc(C(=O)NNC(=S)NC(=O)c2ccc(Cl)cc2Cl)cc1,-11.6%
Cc1ccc(CNC(=S)N(C)C)cc1,10.1%
NC(=O)Cn1c(=O)n(CCC(=O)Nc2ccc(F)cc2)c(=O)c2sccc21,1.1%
CCOc1ccc(CCNc2nc3c(-c4ccc(C)cc4)nnn3c3ccccc23)cc1OCC,9.0%
CCN1CCCC1CN(Cc1cc2ccc(C)cc2[nH]c1=O)C(=S)Nc1ccc(F)cc1 (centres undefined),-16.3%
Cc1c(NC(=O)CN2C(=O)NC(C)(c3ccccc3)C2=O)c(=O)n(-c2ccccc2)n1C (centres undefined),-11.4%
O=[N+]([O-])c1ccccc1SNc1ccccn1,-25.0%
COc1ccc(C)cc1S(=O)(=O)N(C)CC(=O)N1CCN(c2ccccc2)CC1,-13.8%
O=C(CCn1c(=O)[nH]c2ccsc2c1=O)N(CCc1ccccc1)Cc1ccccc1,10.5%
COc1cc(S(=O)(=O)N2CCCCC2)ccc1NC(=O)c1ccc(F)cc1,-3.9%
CCOC(=O)N1CCC(NC(=O)Cc2cn(C)c3ccccc23)CC1,1.4%
# Next compounds:
SMILES,VDR inh
COc1ccccc1C(=O)Nc1cccc2cccnc12,22.6%
Cc1cn2c(=O)c(S(=O)(=O)Nc3ccc(N4CCOCC4)cc3)c(C)nc2s1,15.9%
O=[N+]([O-])c1cc([N+](=O)[O-])c(Oc2ccc(F)cc2)cc1NN1CCCCC1,-4.3%
O=C(NN1C(=O)C2C(c3ccccc3)C=CC(c3ccccc3)C2C1=O)c1ccccc1 (centres undefined),-18.8%
Cc1ccc(S(=O)(=O)N2CCN(CC(=O)N/N=C/c3ccccc3OCC(=O)O)CC2)cc1,-2.4%
CCCC(=O)Nc1ccc(NC(=O)c2sc3ccccc3c2Cl)cc1,1.7%
CN(C)CCNC(=O)c1ccc2c(=O)n(Cc3ccc(Cl)cc3)c(=S)[nH]c2c1,-13.2%
CCOC(=O)c1cccc(N/C=C/C(=O)c2ccc(OC)c(OC)c2)c1,-15.1%
CC(C)(C)OC(=O)N1CCCN(C(=O)Nc2ccc(OC(F)(F)F)cc2)CC1,3.5%
CC(C)[C@@H]1NC(=O)c2cc([N+](=O)[O-])cc(I)c2OCC[C@@H](C(N)=O)NC(=O)[C@H](CCC(=O)O)NC1=O,-8.3%
CC(C)c1ccc(S(=O)(=O)Nc2ccc(O)c(Sc3ncn[nH]3)c2)cc1,-6.9%
Cc1ccc(NC(=O)CSc2nc3ccccc3c(=O)n2CCC(=O)NC2CCCCC2)cc1C,1.0%
CSCCC(NC(=O)c1ccco1)C(=O)N1CCCC(C(F)(F)F)C1 (centres undefined),10.3%
Cc1ccc(C(=O)NC2CCN(C(=O)N3CCOCC3)CC2)cc1,-10.6%
CC(C)CNC(=S)N1CCC(Cc2ccccc2)CC1,3.8%
O/N=C/c1ccn(-c2ccc(Br)cc2)c1,-12.1%
CC(C)(O)CN(CCCNC(=S)Nc1ccccc1)C(=S)Nc1ccccc1,-7.5%
COc1ccc(NC(=O)CSc2nnc(C3CCCCC3)n2N)cc1OC,-10.4%
Cc1sc2ncn(CC(=O)Nc3ccc(C(F)(F)F)cc3)c(=O)c2c1S(=O)(=O)N1CCN(C)CC1,6.7%
Cc1ccc(N/C=C2\CCCCC2=O)c(C)c1,-9.0%
Cc1cc(C(F)(F)F)n2ncc(-c3ccccc3)c2n1,-12.9%
Cc1[nH]c2ccccc2c1C(=O)COC(=O)c1ccccc1O,4.8%
N/C(=N\OC(=O)c1ccoc1)c1ccc(Br)cc1,-13.7%
O=C(Nc1ncccn1)C1CCCCC1,-9.3%
COc1ccc(OC)c(C2C(C(=O)Nc3ccccc3OC)=C(C)Nc3c(C(=O)Nc4ccc(F)cc4)cnn32)c1 (centres undefined),2.2%
CCNC(=S)NNC(=O)c1cccnc1,-9.1%
O=C(CCSc1ccc(Cl)cc1)N1CCOCC1,-7.1%

# The list is partial. The share of hits here may be higher or lower than overall.
